# Compound activity: PubChem, National Center for Advancing Translational Sciences (NCATS)
# gsp antag – antagonists of gsp mutant (McCune-Albright syndrome). Potency, µM (series often up to 76.9 µM), inactives show at the top dose activity change, negative = inhibition, actives largely listed as inhibitors. 0.4% of 340,000 active. gsp-mutant cells, cAMP HTRF, 30 min; control for the full effect not named in the record. AID 624288; active = falling curve of any shape with a large fitted effect; inconclusive = falling curve, mostly with a smaller effect; inactive = flat or rising curve; cell line not stated here;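 also: intracellular cAMP measured with PDE inhibitor Ro 20-1724 present during compound exposure; potency is read from the fitted curve at half-maximal effect; % is scaled to controls: 0 for no effect and ±100 for the full control effect; nearly all actives have a fitted effect of over 65% in size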
#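 HTRF cAMP read-out (cAMP-d2 plus anti-cAMP antibody-K in lysis buffer, 30 min RT). Before lysis, cells are exposed to compounds with […] for 30 min at 37C in DPBS containing Ca/Mg, BSA and Tween 20.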
# ClpP mod – qHTS Assay for Activators of ClpP. Potency, µM (top dose mostly 57.5 µM), inactives show top-dose activity change, negative = active. AID 651965, 2013. purified B. subtilis ClpP, FRET peptide cleavage, 20 min. ATP-dependent Clp protease proteolytic subunit (Bacillus subtilis (strain 168)), P80244. 1.9% of 340,000 active; active = well fitted falling curve with a large enough effect; inconclusive = small, poorly fitted or top-dose-only effect; inactive = no such curve, though single readings can be large or run the other way; also: potency is read from the fitted curve at half-maximal effect; the source files actives as falling curves though it sought activators and does not explain the sign; nearly all actives have a fitted effect of over 65% in size; many hits overshoot -100%
# Target sequence (P80244 whole entry, looked up): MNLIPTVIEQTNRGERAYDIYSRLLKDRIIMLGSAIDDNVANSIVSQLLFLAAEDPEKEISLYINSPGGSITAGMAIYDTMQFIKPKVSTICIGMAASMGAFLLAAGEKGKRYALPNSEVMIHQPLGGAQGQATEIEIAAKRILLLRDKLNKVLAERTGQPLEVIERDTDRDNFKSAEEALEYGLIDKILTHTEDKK
#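 ClpP 10 microg/mL final, pH 8 Tris/KCl buffer with BSA, glycerol, Tween-20; compound pinned in; FRET-FV substrate; RT 20 min; Ex320/Em430; ΔFRET vs ADEP 5.8 microM, DMSO, no enzyme.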
# TRPV1 PAM – human TRPV1 potentiation; Q8NER1; TRPV1-expressing cells, Fluo-8 calcium influx, capsaicin EC20 potentiation; host cell line not named in the record; control for the full effect not named in the record; potentiation, % at 8.33 µM; 0.02% of 320,000 active; active means potentiation above 80%; inconclusive means 30% to 80%; inactive means below 30%; also: 0% is about no effect
# Target sequence (Q8NER1 whole entry, looked up): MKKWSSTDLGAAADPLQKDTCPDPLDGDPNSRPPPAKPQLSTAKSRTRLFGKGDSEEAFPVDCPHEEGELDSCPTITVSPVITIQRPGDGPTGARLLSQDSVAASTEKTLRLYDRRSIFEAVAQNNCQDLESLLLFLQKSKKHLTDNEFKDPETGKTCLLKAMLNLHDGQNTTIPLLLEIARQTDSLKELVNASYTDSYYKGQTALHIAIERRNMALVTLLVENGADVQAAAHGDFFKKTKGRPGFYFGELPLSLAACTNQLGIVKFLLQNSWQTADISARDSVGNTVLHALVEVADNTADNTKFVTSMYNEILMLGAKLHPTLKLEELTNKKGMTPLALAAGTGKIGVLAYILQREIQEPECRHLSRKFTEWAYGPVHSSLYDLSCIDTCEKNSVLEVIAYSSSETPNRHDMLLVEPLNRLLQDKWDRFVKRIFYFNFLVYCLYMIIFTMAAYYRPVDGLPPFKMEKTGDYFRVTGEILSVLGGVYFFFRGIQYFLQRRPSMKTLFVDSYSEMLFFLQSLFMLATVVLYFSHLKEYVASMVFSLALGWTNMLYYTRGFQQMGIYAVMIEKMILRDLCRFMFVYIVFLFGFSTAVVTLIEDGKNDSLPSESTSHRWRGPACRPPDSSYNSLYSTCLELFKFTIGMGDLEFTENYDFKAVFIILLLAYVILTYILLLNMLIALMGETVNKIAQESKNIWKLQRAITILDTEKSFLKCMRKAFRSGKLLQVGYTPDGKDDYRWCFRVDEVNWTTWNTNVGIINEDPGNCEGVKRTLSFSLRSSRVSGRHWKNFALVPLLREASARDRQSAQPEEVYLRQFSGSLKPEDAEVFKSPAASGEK
#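 TRPV1-expressing cells were cultured overnight at 35.5C and loaded with Fluo-8 calcium dye for 40 to 90 min at room temperature. After a 10 s baseline, compound was added and calcium influx was read kinetically for 3 min (ex 480/em 520 nm).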
# D2 PAM – positive allosteric modulators of human D2 dopamine receptor | 0.23% of 360,000 active | DiscoveRx D2 beta-arrestin cells, luminescence, 90 min; 100% = 57 uM dopamine signal | AID 624464 | P14416 | potentiation, % (concentration not given with the values); active = potentiation of 50% or more; inconclusive = 30% to 50%; inactive = 30% or less;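 also: compound concentration not given in the record; tested on top of an EC20 dose of dopamine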
#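 D2 cells co-treated with compound plus 50 nM dopamine (EC20) for 90 min at 37 deg C to detect potentiation. Beta-arrestin recruitment was read as enzyme-fragment luminescence after 1 h at ambient temperature. Full response was set by 57 uM dopamine.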
# Menin-MLL FL inh – inhibitors of human menin-MLL interaction, wild-type MLL peptide. AID 1766. Fluorescence polarization, fluorescein-MLL peptide displacement from menin. FP activity change, % at 61.4 µM. 290,000 tested, under 10 active; inconclusive = falling polarisation curve, or a change in total fluorescence; inactive = total fluorescence flat and polarisation flat or rising; no compound was filed as active; the % refers to the polarisation; negative = inhibition;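 also: % of control where 0% means no effect; inhibitors lower the polarisation; unlabelled MLL peptide was the positive control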
# Sfp inh – inhibitors of Bacillus subtilis Sfp phosphopantetheinyl transferase; Potency, µM, for the others: max response, negative = inhibition, hits mostly inhibitors; Q9F4F7; Biochemical Sfp PPTase activity, qHTS; 3.5% of 310,000 active; active = well fitted inhibition curve with a large enough effect; inconclusive = small, poorly fitted or top-dose-only effect, or another doubt; inactive = no such curve, though single readings can be large or run the other way;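 also: the enzyme is Sfp with the accession as filed and its product quenches rhodamine fluorescence; potency is read from the fitted curve at half-maximal effect; 0% = enzyme reaction without inhibitor and -100% = no enzyme wells; top concentration of the series not given in the record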
#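 Fluorescence-quenching assay: 15 nM Sfp-PPTase preincubated 15 min at room temperature with compound, then 5 uM rhodamine-CoA and 12.5 uM BHQ-2-labelled YbbR peptide added. Fluorescence (ex 525/em 598 nm) read at start and after 30 min; difference gives rate.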
# gsp agonist – agonists of gsp mutant (McCune-Albright syndrome). Potency, µM (highest dose often 76.9 µM), inactives show at the top dose activation (cAMP increase), usual class: activators. 0.13% of 340,000 active. AID 624287. gsp mutant cells, cAMP HTRF, 30 min; control for the full effect not named in the record; active = well fitted activation curve with a large enough effect; inconclusive = small, poorly fitted or top-dose-only effect, or another doubt; inactive = no such curve, though single readings can be large or run the other way; cell line not stated here;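 also: phosphodiesterase inhibitor Ro 20-1724 added with compounds to block cAMP breakdown; potency is read from the fitted curve at half-maximal effect; nearly all actives have a fitted effect of over 60% in size; about a fifth of the inactives were tested at one dose only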
#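 Cells stably selected in G418 were plated at 2000/well, grown 16-24 hr, then given compounds in DMSO with the PDE inhibitor […] (300 uM solution added) for 30 min at 37C; cAMP was read by HTRF.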
# An asterisk follows results filed as active; ? = inconclusive; · = not tested or not shown; & = joins results of further samples; [ ] = remark or other dose.
SMILES,gsp antag,ClpP mod,TRPV1 PAM,D2 PAM,Menin-MLL FL inh,Sfp inh,gsp agonist
Cc1ccc(CN2CCN(c3ccccn3)CC2)s1,4%,-5.0%,-10,68*,-0.5,56µM*,1%
COc1ccc(C2CC(c3cccs3)=NN2C(=O)CSc2nc3ccccc3o2)cc1 (stereo not given),-12%,32µM*,10,-11,3.7,12%,7%
CCC1CCCCN1S(=O)(=O)c1ccc(S(=O)(=O)N(Cc2cccs2)C2CC2)cc1 (stereo not given),-11%,2.4%,22,-19,3.0,11%,-41%[inhibitor]
Cc1cc(=O)n2c3c(sc2n1)C(=O)N(Cc1ccccc1)C3=O,·,·,2,·,4.3,13µM*,·
Cc1ccccc1OCc1n(CC(=O)OC2CC(C)CCC2C(C)C)c2ccccc2[n+]1C (stereo not given),10%&1%,-0.5%,-1&-25,-13&-4,-0.2&0.8,?,-7%&-22%
CCc1ccccc1Nc1nc(N)nc(COC(=O)c2c(C)noc2C)n1,9%,-2.0%,11,-3,·,·,4%
COc1ccc(-c2nc3c(Br)c(N)c(Br)cc3o2)cc1,-1%,-3.1%,-7,-5,3.4,22µM*,?
O=C(CN1C(=O)C2CCc3[nH]c4ccccc4c3C2C1=O)N1CCCC1 (stereo not given),3%,0.4%,-3,0,-5.2,-16%,7%
O=C(Nn1cnnc1)c1cc(Cl)ccc1Cl,5%,0.3%,0,20,4.3,20%,25%
O=C(COC(=O)Cc1ccsc1)NCc1ccc(Cl)cc1,7%,?,-19,-6,3.0,-4%,-17%
COC(C)(C)c1cc(C(C)(C)C)nc(N)n1,17%,-4.0%,14,-5,2.8,19%,?
O=[N+]([O-])c1ccc(Sc2cccc3cccnc23)c2cccnc12,5%,0.4%,4,-4,?,-25%,22%
COc1cc(/C=C2\SC(=S)N(CC(=O)O)C2=O)ccc1OS(=O)(=O)c1ccc(C)cc1,-4%,-3.5%,23,17,·,·,10%
C=CCSc1nnc(NC(=O)C2CC(=O)N(Cc3ccc(C)cc3)C2)s1 (stereo not given),8%,-1.5%,2,-6,·,·,-2%
CCOC(=O)N1CCN(C(=O)c2cc(COc3ccc4ncccc4c3)on2)CC1,?,·,-2,15,0.4,-4%,-14%
Cc1[nH]c(=S)c(C#N)c(-c2ccccc2)c1C(=O)Nc1ccccc1,4%,-0.6%,-1,-8,6.9,28µM*,2%[15.4 µM]
COc1ccccc1OCCNC(=O)c1ccc(S(=O)(=O)N(C)C)cc1,-1%,-0.5%,1,-14,6.3,8%,-60%[inhibitor]
COc1ccccc1CC(=O)NCc1ccc2c(c1)OCO2,-9%,0.9%,12,-10,-0.8,18%,35%
C[C@H](CO)N1C[C@H](C)[C@@H](CN(C)S(=O)(=O)c2ccc(F)cc2)Oc2ccc(NC(=O)Cc3ccccc3)cc2C1=O,-10%,1.5%,·,-1,·,·,·
COc1ccc(CCNC(=O)CN(C)S(=O)(=O)c2ccc3c(c2)CCC(=O)N3)cc1OC,8%,1.1%,?,-1,3.1,30%,?
CN(Cc1nc(-c2cccnc2)no1)S(=O)(=O)c1ccc(Br)cc1,-5%,31%,14,1,8.5,-4%,-11%
C=CCn1c(Cc2ccccc2)nc2c(cnn2-c2ccccc2)c1=O,?,0.9%,6,-3,0.9,-26%,-10%[15.4 µM]
Clc1ccc2nc(CN3CCCCC3)cn2c1,-5%,-9.5%,11,-16,-3.7,-8%,?
O=C(CCCN1CCc2[nH]c3ccc(F)cc3c2C1)c1ccc(F)cc1,3%,·,6,-1,5.4,-2%,-4%[15.4 µM]
Cc1nn(Cc2ccc(C(=O)N3N=C(C(F)F)CC3(O)C(F)F)o2)c(C)c1[N+](=O)[O-] (stereo not given),2%,-0.6%,9,12,3.6,-2%,-12%
COc1ccc(CNC(=O)c2c(O)c3ccccc3n(C)c2=O)cc1OC,10%,-2.1%,-6,-16,0.9,-9%,-23%
CCOc1ccc2cc(S(=O)(=O)N3CCN(C)CC3)ccc2c1,8%,1.4%,-6,-10,2.0,-3%,6%[15.4 µM]
Cc1ccc(NC(=O)Nc2c(C)n(C)n(-c3ccccc3)c2=O)cc1C,·,·,4,-33,-0.1,5%,4%[15.4 µM]
O=C(O)C(Cc1c[nH]c2ccccc12)N1Cc2ccccc2C1=O (stereo not given),4%,·,-3,-9,-1.8,-17%,-24%
CCC(=NNC(=O)c1ccc2c(c1)nc(C)n2CC)c1cc(F)ccc1O,-8%,5.3%,·,-14,·,·,8%
CCC(=O)Nc1sc2c(c1C(N)=O)CCN(Cc1ccccc1)C2,2%,-11%,-22,-13,-1.9,1%,-33%[inhibitor]
COC(=O)[C@]1(C)N[C@H](CN(C)C(=O)c2ccc(C(C)(C)C)cc2)[C@@H]2C(=O)N(C)C(=O)[C@@H]21,6%,-0.3%,·,-3,·,·,·
C=CCn1c(SCC(=O)N2CCc3ccccc3C2)nc2sc(C)c(C)c2c1=O,-16%,-0.9%,-3,-2,0.5,-4%,?
Cc1cccc(NC(=O)CSCC(=O)N2CCCc3ccccc32)c1,2%,-2.0%,5,-7,·,·,-76%[inhibitor]
O=C(Nc1ccc(N2CCOCC2)c(C(=O)O)c1)c1ccco1,·,·,3,·,8.4,12%,·
Cc1cc(=O)n(Cc2ccc(OC(C)C)cc2)c(=S)[nH]1,2%,·,-3,0,-1.6,16%,2%[15.4 µM]
CCCCC(CC)COC(=O)CCCCC(=O)OCC(CC)CCCC (stereo not given),-5%,-0.3%,-9,-1,·,·,·
COC(=O)c1ccccc1NC(=O)c1cc2sccc2n1C,-12%,32µM*,2,-13,2.5,6%,2%
Cc1cc(Br)ccc1N=C1NC(=O)CS1,7%,·,5,2,1.2,40µM*,1%
O=C(Nc1ccc(Br)cc1)c1cccc(N2C(=O)CCC2=O)c1,-1%,0.4%,-5,-16,·,12%,-5%
CC1CCc2sc(C(=O)N/N=C/C3CCCCC3)cc2C1 (stereo not given),-10%,·,-16,-10,6.8,19%,2%
CC(=O)N/N=C(\C)c1ccc(Br)cc1Br,7%,1.4%,2,-11,-0.8,17%,-31%[inhibitor]
CCCCCCCCC(=O)NCCOc1ccccc1,13%,-0.7%,-5,-16,2.2,13%,-15%
O=C(Cn1cc(C(F)(F)F)ccc1=O)N1CCN(S(=O)(=O)c2ccc(Cl)cc2)CC1,-1%,-1.4%,4,4,7.2,-1%,-7%
Cc1ccc(/C=N/NC(=O)c2sccc2OCc2ccc(F)cc2)cc1,1%,-2.7%,-16,-11,-2.7,?,-24%
COc1ccccc1-c1cc(N)n(S(=O)(=O)c2cccc3nsnc23)n1,-12%,·,8,-3,-0.9,11%,-8%[15.4 µM]
CCOC(=O)C(=O)NC12CC3CC(CC(C3)C1)C2,-2%,2.2%,3,-7,0.2,12%,-29%[15.4 µM]
CN(CC(=O)Nc1ccccc1Br)C(=O)CNC(=O)C1CCCCC1,14%,0.2%,-8,-1,·,·,?
Cc1nc2ccsc2c(=O)n1-c1cccc(Cl)c1,8%,-0.1%,·,-4,·,·,-2%[15.4 µM]
COc1ccccc1C(CNC(=O)c1cc(S(=O)(=O)N2CCOCC2)ccc1C)N1CCCC1 (stereo not given),8%,-0.1%,-4,2,·,·,-71%

# Following part.
SMILES,gsp antag,ClpP mod,TRPV1 PAM,D2 PAM,Menin-MLL FL inh,Sfp inh,gsp agonist
COc1ccc(Nc2nc(=O)c3cc([N+](=O)[O-])ccc3s2)cc1,7%,-1.8%,4,-11,0.7,?,-60%[inhibitor]
Cc1oc(-c2cccc(Cl)c2)nc1CN1CCC(C(=O)N2CCN(c3ccccc3F)CC2)CC1,3%,-7.0%,-6,-8,-0.3,-19%,-86%[inhibitor]
CCCCOc1ccc(C(=O)N(Cc2ccccc2)C2CCS(=O)(=O)C2)cc1 (stereo not given),-10%,-0.7%&1.1%,-2,-3,-5.8,10%,-1%
CCN(CC)CCCNC(=O)C1c2ccccc2Oc2ccccc21,9%,-2.3%,-5,-7,-6.2,8%,7%
Fc1ccccc1Cc1noc(CN2CCN(c3ccc(Cl)cn3)CC2)n1,8%,-6.5%,1,2,-2.1,16%,14%
CCCCN(C)C(=O)c1ccc(S(=O)(=O)N2CCOCC2)cc1,-3%,-1.6%,-6,0,1.7,27%,7%
COc1ccc(NC(=O)c2ccc3c(c2)S(=O)(=O)N=C2CCCCCN23)cc1S(N)(=O)=O,14%,1.1%,·,-5,·,·,17%
COc1ccc(C(=O)C(C)[n+]2ccc(-c3nnc4n3CCCCC4)cc2)cc1 (stereo not given),6%,·,-13,-19,-1.7,3%,-5%[15.4 µM]
CN1/C(=C\C(=O)c2ccco2)c2ccccc2CC1(C)C,6%,-0.5%,-19,-6,2.4,12%,9%
OCC1CCCN1C(=S)Nc1ccccc1 (stereo not given),5%,-0.8%,22,-9,-1.8,-5%,6%
COc1ccc(C2C3=C(CC(C)(C)CC3=O)Nc3c2c(=O)n(C)c(=O)n3C)cc1OC (stereo not given),-5%,1.9%,2,-21,-3.8,26%,-7%[15.4 µM]
O=C(Nc1ccccc1)N1CCC(n2c(=O)[nH]c3ccccc32)CC1,-2%,-3.6%,-13,-6,-1.0,18%,4%
CC(C)(C)C1=C(C#N)C(c2cccnc2)C(C#N)=C(N)O1 (stereo not given),3%,-0.9%,-7,9,-3.1,7%,21%
O=C(NCC(=O)N(Cc1cccs1)C(C(=O)NC1CCCCC1)c1ccncc1)c1ccco1 (stereo not given),-4%,0.3%,4,-7,-1.1,-5%,?
CC(=O)c1cccc(NC(=O)C2CCN(C(=O)c3ccc([N+](=O)[O-])cc3)CC2)c1,2%,-2.7%,2,-5,-2.9,26%,-64%[inhibitor]
CC(C)CCn1nnnc1C(c1ccc(F)cc1)N1CCC(C(N)=O)CC1 (stereo not given),-8%,-0.8%,-3,13,0.2,15%,-27%
Cn1cc(CN2CCCCC2C(=O)Nc2ccc(-n3cccn3)cc2)cn1 (stereo not given),-2%,-2.9%,3,-12,4.2,11%,-8%
